TRPML1 agonist: activates the human TRPML1 channel | activation, % (concentration not given with the values) | Q9GZU1 | TRPML1-expressing cells, Ca2+ dye fluorescence, FDSS; host cell line not named in the record; reference of the full effect not given here | hit rate 0.12% among 410,000 | AID 624414; in the data active = activation above about 50%; inconclusive = about 30% to 50%; inactive = below about 30%; note: 0% is about no effect; the text of the record puts the active cut at 80%
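Kinetic FDSS Ca2+ read in Tet-induced TRPML1-DL cells (ABD Ca8 dye plus quencher, 45-90 min RT loading): baseline, then compound, then 110 s agonist window; EC80 agonist 54-4 at 4uM final added afterwards for a 110 s antagonist window.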
TRPV1 potentiator: potentiators of human vanilloid receptor 1 (TRPV1) | Q8NER1 | TRPV1-expressing cells, Fluo-8 calcium influx, capsaicin EC20 potentiation; host cell line not named in the record; control for the full effect not named in the record | potentiation, % at 8.33 µM | hit rate 0.02% among 320,000; active means potentiation above 80%; inconclusive means 30% to 80%; inactive means below 30%; note: 0% is about no effect
Target sequence (Q8NER1 whole entry, looked up): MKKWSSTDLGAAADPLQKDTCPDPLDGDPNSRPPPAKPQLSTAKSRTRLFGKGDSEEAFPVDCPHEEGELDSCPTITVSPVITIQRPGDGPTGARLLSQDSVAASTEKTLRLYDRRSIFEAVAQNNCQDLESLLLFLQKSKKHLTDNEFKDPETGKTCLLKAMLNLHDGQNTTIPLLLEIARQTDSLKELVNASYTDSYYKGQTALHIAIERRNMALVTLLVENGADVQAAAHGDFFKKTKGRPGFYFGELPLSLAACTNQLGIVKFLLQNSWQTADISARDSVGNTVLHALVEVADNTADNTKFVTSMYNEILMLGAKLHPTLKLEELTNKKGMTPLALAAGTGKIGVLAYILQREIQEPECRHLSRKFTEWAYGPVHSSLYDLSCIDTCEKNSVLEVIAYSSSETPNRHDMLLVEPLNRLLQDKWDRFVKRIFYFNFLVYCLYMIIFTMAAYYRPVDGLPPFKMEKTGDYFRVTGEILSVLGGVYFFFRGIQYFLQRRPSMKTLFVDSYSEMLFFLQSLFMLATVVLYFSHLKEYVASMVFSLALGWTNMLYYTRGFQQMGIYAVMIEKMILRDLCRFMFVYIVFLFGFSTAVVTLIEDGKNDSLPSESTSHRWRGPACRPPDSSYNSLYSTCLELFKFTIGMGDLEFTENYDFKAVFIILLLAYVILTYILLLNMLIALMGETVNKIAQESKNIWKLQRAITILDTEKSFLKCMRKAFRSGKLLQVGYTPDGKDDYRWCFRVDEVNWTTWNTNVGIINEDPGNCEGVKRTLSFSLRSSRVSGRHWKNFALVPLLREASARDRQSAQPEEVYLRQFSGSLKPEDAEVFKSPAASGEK
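Fluo-8 calcium influx in TRPV1-expressing cells, kinetic read (ex 480/em 520 nm). Compound added and read 3 min for agonist activity, followed by capsaicin at EC20 final and 2 min further read for enhancement.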
Sfp PPTase inh: Sfp phosphopantetheinyl transferase inhibition | Q9F4F7 | Biochemical Sfp PPTase activity, qHTS | Potency, µM, for the others: max response, negative = inhibition, usual class: inhibitors | hit rate 3.5% among 310,000 | AID 1490; active = well fitted inhibition curve with a large enough effect; inconclusive = small, poorly fitted or top-dose-only effect, or another doubt; inactive = no such curve, though single readings can be large or run the other way;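 note: the enzyme is Sfp with the accession as filed and its product quenches rhodamine fluorescence; potency is the fitted concentration of half-maximal effect; 0% = enzyme reaction without inhibitor and -100% = no enzyme wells; top concentration of the series not given in the record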
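Fluorescence-quenching assay with 15 nM Sfp, 5 uM rhodamine-CoA and 12.5 uM BHQ-2-labelled ybbR peptide in pH 7.6 Hepes/MgCl2 buffer. Enzyme was pre-incubated with compound for 15 min at room temperature. Rate was taken from the 30-min fluorescence change (525/598 nm).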
TRPML1 inh: inhibitors of human TRPML1 channel | Q9GZU1 | hit rate 0.02% among 390,000 | activity change, negative = inhibition, % (concentration not given with the values) | TRPML1-inducible cells, Ca2+ dye fluorescence, FDSS; hits give low values; inhibition of EC80 agonist-evoked calcium signal; in the data active means activity change below about -50%; inconclusive means about -30% to -50%; inactive means above about -30%;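 note: stimulus is agonist 54-4 at its EC80 concentration; % is set by controls: 0 for no effect and ±100 for the full control effect; compound concentration not given in the record; the text of the record puts the active cut at -80%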
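Tet-induced TRPML1-DL cells loaded with Ca8 no-wash calcium dye were read kinetically on FDSS. Compound addition was followed by EC80 agonist 54-4 (4 uM final); inhibition was read over 110 s.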
ClpP mod: qHTS Assay for Activators of ClpP; AID 651965, 2013; Potency, µM (highest dose often 57.5 µM), without a hit: at the top dose activity change, negative = active; hit rate 1.9% among 340,000; purified B. subtilis ClpP, FRET peptide cleavage, 20 min; ATP-dependent Clp protease proteolytic subunit (Bacillus subtilis (strain 168)), P80244; active = well fitted falling curve with a large enough effect; inconclusive = small, poorly fitted or top-dose-only effect; inactive = no such curve, though single readings can be large or run the other way; note: potency is the fitted concentration of half-maximal effect; the source files actives as falling curves though it sought activators and does not explain the sign; nearly all actives have a fitted effect of over 65% in size; many hits overshoot -100%
Target sequence (P80244 whole entry, looked up): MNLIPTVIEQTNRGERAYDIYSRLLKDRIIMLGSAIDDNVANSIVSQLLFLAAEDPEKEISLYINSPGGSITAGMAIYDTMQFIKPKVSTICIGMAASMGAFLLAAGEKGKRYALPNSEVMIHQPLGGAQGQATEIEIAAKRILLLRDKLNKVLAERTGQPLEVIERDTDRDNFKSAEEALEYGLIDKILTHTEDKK
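FRET quenching reversal measured ClpP activation: 10 microg/mL B. subtilis ClpP at pH 8 with the FRET-FV decapeptide, read at 430 nm after 320 nm excitation. The 20-min minus 0-min signal was scaled between DMSO/no-enzyme wells and ADEP (5.8 microM final).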
Menin-MLL FL inh: inhibitors of human menin-MLL interaction, wild-type MLL peptide; AID 1766; FP activity change, % at 61.4 µM; 290,000 tested, under 10 active; Fluorescence polarization, fluorescein-MLL peptide displacement from menin; inconclusive = falling polarisation curve, or a change in total fluorescence; inactive = total fluorescence flat and polarisation flat or rising; no compound was filed as active; the % refers to the polarisation; negative = inhibition;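 note: % of control where 0% means no effect; inhibitors lower the polarisation; unlabelled MLL peptide was the positive control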
PINK1 expr mod: changes PINK1 expression; PINK1 immunofluorescence, high-content cytometry, 24 h; Potency, µM (highest dose often 76.6 µM), for the others: at the top dose activation (PINK1 increase), hits mostly activators; hit rate 0.2% among 410,000; active = well fitted activation curve with a large enough effect; inconclusive = small, poorly fitted or top-dose-only effect; inactive = flat fitted curve, though single readings scatter; cell line not stated here;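 note: potency is the fitted concentration of half-maximal effect; % of control where 0% means no effect; nearly all actives have a fitted effect of over 65% in size; a mitochondrial uncoupler was the plate control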
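Fluorescence from anti-PINK1 antibody, together with nuclear and cell stains, was scanned on a laser-scanning cytometer. Before staining, stable-line cells were incubated 24 hours with compounds at 5 concentrations; primary antibody 12 h at 10 degrees C.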
Starred values were filed as active, the others as inactive; ? = inconclusive; . = no result given; [ ] = remark or other dose. Not a hit list; about 4.4% have a hit in one of these screens.

SMILES	TRPML1 agonist	TRPV1 potentiator	Sfp PPTase inh	TRPML1 inh	ClpP mod	Menin-MLL FL inh	PINK1 expr mod
COCCOc1ccc(C(F)(F)F)cc1N	1.8	3	4%	20	1.4%	2.8	1.2%
Cc1ccccc1C(=O)Nc1ccc(S(=O)(=O)N2CCC(c3nc4ccccc4s3)CC2)cc1	0.9	.	.	6	-10%	.	6.1%
CC(C)c1nnc(NC(=O)CCC(=O)NCc2ccco2)s1	0.1	-3	2%	15	-1.0%	5.7	.
C=CCn1c(Cc2csc(N)n2)nnc1SCC(=O)Nc1ccccc1C(F)(F)F	0.2	-8	6%	-9	-1.0%	0.5	-2.2%[38.3 µM]
CCOC(=O)C1(C)CCN1C(=O)c1ccc(OC)c(C(F)(F)F)c1 (stereo not given)	-1.0	.	.	.	0.5%	.	1.8%
CC1C=CCC2C(=O)N(c3ccc(Cl)cc3O)C(=O)C12 (stereo not given)	0.2	8	3%	-4	0.5%	0.0	4.7%
COc1ccc(/C=C/c2ccnc3ccccc23)c(OC)c1	0.0	.	.	.	-6.2%	.	8.9%
O=C(Nc1ccccc1)N(CCCN1CCOCC1)Cc1cccs1	-0.2	.	16%	6	-0.8%	-1.6	-1.4%
COc1cc2[nH]c(=O)n(Cc3ccc(C(=O)NCC4CCCO4)cc3)c(=O)c2cc1OC (stereo not given)	0.1	-10	17%	6	25µM*	-2.4	5.0%
Cc1ccccc1NC(=S)NCc1ccco1	0.3	0	1%	5	1.1%	-1.5	-0.1%
Cc1ccccc1NC(=O)Cn1c(=O)n(Cc2ccc3c(c2)OCO3)c(=O)c2oc3ccccc3c21	0.1	.	.	8	-6.2%	.	0.5%
Cn1c(=O)c2c(nc(CN3CCc4ccccc4C3)n2Cc2ccccc2F)n(C)c1=O	0.0	15	1%	-1	-7.3%	2.4	-1.2%
CCCOc1ccc(Cn2c(=O)oc3ccc(C)cc32)cc1OC	2.3	?	2%	11	240%	-0.4	3.0%
OCCC1CN(Cc2cnc(-c3cccc4ccccc34)nc2)CCN1C1CCCCC1 (stereo not given)	1.5	-10	2%	30	-11%	5.2	-0.8%
Cc1ccccc1-n1nnnc1SCc1ncc(-c2ccccc2)o1	2.0	-9	-9%	8	32µM*	0.6	-0.8%

The final 2 records of the section above come first, to join the parts:
SMILES	TRPML1 agonist	TRPV1 potentiator	Sfp PPTase inh	TRPML1 inh	ClpP mod	Menin-MLL FL inh	PINK1 expr mod
OCCC1CN(Cc2cnc(-c3cccc4ccccc34)nc2)CCN1C1CCCCC1 (stereo not given)	1.5	-10	2%	30	-11%	5.2	-0.8%
Cc1ccccc1-n1nnnc1SCc1ncc(-c2ccccc2)o1	2.0	-9	-9%	8	32µM*	0.6	-0.8%
Cc1nc(NC(=O)CN2CCCCC2)sc1C(=O)N(C)C	0.0	12	-7%	-10	.	4.4	1.0%
COc1ccc(CCNC(=O)CSCC(=O)Nc2ccccc2)cc1OC	-0.6	3	6%	-1	-3.6%	0.0	-1.5%
CC(C)=NNc1nc2c(c(=O)[nH]c(=O)n2C)n1CCCc1ccccc1	1.5	1	-22%	-9	2.8%	1.4	1.0%
CN1C(=O)c2cccc3c(Cl)ccc(c23)C1=O	-0.4	-1	-1%	2	16µM*	0.4	-1.5%[38.3 µM]
O=C(Nc1ccccc1Cl)c1ccc2c(=O)n3c(nc2c1)CCC3	2.3	-5	.	15	1.5%	.	1.7%
O=C(c1ccccc1)c1ccc(N2CCCC2)cc1	1.4	-18	-17%	17	-1.4%	-2.3	3.1%
C/C(=N\NC(N)=O)c1ccccc1Cl	1.0	9	6%	48	.	2.6	-1.2%
COc1ccc(Cl)cc1NC(=O)CN(C)CC(=O)NCc1cccs1	0.0	3	.	0	0.0%	.	2.0%
CN(C)c1cccc(CNC(=O)c2ccc3nc([C@@H]4O[C@H](CO)[C@H](O)[C@H](O)[C@H]4O)[nH]c3c2)c1	-0.9	.	.	.	-1.3%	.	-0.4%
Cc1ccccc1-c1nnc(SCC#N)o1	-0.8	0	12%	-4	.	1.4	-0.9%
COC(=O)c1ccccc1NC(=O)c1cc2nc(C3CC3)cc(C(F)(F)F)n2n1	0.5	-7	-2%	5	29%	0.2	?
CC(C)NC(=O)Nc1cccc2c1O[C@H](CN(C)C(=O)Nc1ccc(C(F)(F)F)cc1)[C@@H](C)CN([C@H](C)CO)C2=O	-0.6	.	.	-14	-1.6%	.	2.1%
CCCCCn1c(=O)[nH]c2cc(C(=O)N3CCN(CC)CC3)ccc2c1=O	-0.4	-2	6%	-3	-10%	3.5	-4.2%
COc1ccc(C(=O)/C=C/Nc2cc(C)on2)cc1	0.2	12	28%	11	-7.5%	-0.9	-3.6%[38.3 µM]
Cc1cc(Oc2ccccc2)nc(N)n1	-0.1	13	12%	-14	-0.3%	0.6	?
Cc1noc(C)c1-c1nc(CSc2ccc(Cl)cc2)no1	-0.3	-1	-6%	-18	-5.3%	4.1	7.4%
CN1CCN(C(c2cccc(C(F)(F)F)c2)c2nnnn2C(C)(C)C)CC1 (stereo not given)	2.0	-3	3%	15	0.1%	4.3	0.7%[38.3 µM]
O=C(Nc1cccc2ncccc12)c1ccccc1Cl	-0.2	-28	-23%	-12	1.8%	1.8	0.9%
N#Cc1cnn(-c2ccccc2)c1NC(=O)c1ccccc1F	1.7	-4	.	20	-4.5%	.	0.5%
COc1cccc(C(=O)COC(=O)c2ccc(NC(=O)c3ccccc3)cc2)c1	2.6	.	.	11	-8.8%	.	3.2%
N#CC(c1nc2ccccc2nc1N1CCCC1)S(=O)(=O)c1ccccc1 (stereo not given)	1.7	5	-26%	1	?	?	1.7%
Cc1ccc(-c2ccc(/C=N/NC(=S)Nc3ccccc3)o2)cc1[N+](=O)[O-]	0.6	.	-2%	-9	-1.4%	0.0	?
COc1cc(C(=O)NCCCn2ccnc2)cc(OC)c1OC	0.2	5	19%	-9	-0.8%	-4.2	-1.2%
CCN(C(=O)CN1C(=O)COc2ccc(S(=O)(=O)N3CCCCCC3)cc21)c1cccc(C)c1	3.3	3	-5%	-10	0.4%	1.4	2.7%
COc1cc(NC(=O)CN2C(=O)C(=O)N(C3CCCC3)C2=O)cc(OC)c1	1.0	-12	.	-3	-1.8%	.	4.2%
COC(=O)C(C)NC(=O)C12CC3CC(C1)CC(c1ccc(C)cc1)(C3)C2 (stereo not given)	-0.7	-22	2%	-17	-4.3%	-4.8	-0.4%
Fc1ccc2[nH]c3c(N4CCc5ccccc5C4)ncnc3c2c1	4.7	.	-2%	-2	.	0.4	-1.5%
CCCN1Cc2cccc(C(=O)Nc3cc(Cl)ccc3C)c2C1=O	2.0	.	.	8	-0.2%	.	0.8%
CCN(CC(=O)NC1CCS(=O)(=O)C1)S(=O)(=O)c1cc(Br)ccc1Br (stereo not given)	0.8	16	.	-8	1.4%	.	-3.9%
COc1cccc2cc(CC(=O)c3ccc(C)c(C)c3)c(=O)oc12	2.5	?	10%	14	-1.9%	-3.3	3.1%
O=C(c1ccccc1F)N1CCN(c2ncccn2)CC1	-0.2	-7	11%	3	-13%	-2.3	0.2%
CCOC(=O)c1cc(C#N)c(Oc2ccccc2)nc1-c1ccccc1	1.4	-1	-11%	37	-6.9%	1.5	-1.8%
Cc1ccc(-n2cc(CN(C)Cc3nccn3C)c(-c3cccc(C)c3)n2)cc1	0.4	-18	4%	-13	.	3.0	8.1%
C=CCN1C(=O)S/C(=C\c2ccc(N3CCOCC3)cc2C)C1=O	1.6	-1	-15%	15	-1.1%	?	0.9%
CCN1CCN(CCNC(=O)c2ccc3c(c2)N(Cc2ccc(F)cc2)C(=O)/C(=C/c2ccccc2)S3)CC1	2.7	9	50µM*	2	.	-1.7	-3.4%
CC(=O)c1ccc(NC(=O)Cn2c(=O)c3cccn3c3ccccc32)cc1	2.3	.	.	-24	-4.2%	.	4.1%
COC(=O)[C@]12CCCCC=C1N(Cc1ccco1)C(=O)[C@H](CC(=O)NCC1CCCCC1)C2	-0.4	.	.	.	-4.0%	.	0.2%
Cn1c(Cn2c(=O)sc3ccccc32)nnc1SCC(=O)Nc1ccccc1F	0.1	-10	20%	5	1.9%	0.4	0.5%
Cc1ccccc1NC(=O)COc1ccccc1C	1.1	-4	11%	0	-1.6%	-1.2	1.7%
CC1=NNC(=O)C1CC(=O)N/N=C/C(C)=C/c1ccccc1 (stereo not given)	-0.6	1	12%	9	.	-5.4	1.3%
Cc1ccc(-c2cc3ncc4c(n3n2)-c2cc(Cl)ccc2OC4)cc1	-0.3	.	.	-1	0.5%	.	-0.5%
Cc1cccc(C)c1OCCN1C(=O)NC(C)(c2ccccc2)C1=O (stereo not given)	-0.8	-2	-14%	42	0.8%	0.4	-2.2%
Cc1cc2c(c(C)c1CCO[C@@H]1O[C@H](CO)[C@@H](O)[C@H](O)[C@H]1O)C(=O)[C@@H](C)[C@@H]2O	0.2	.	.	7	-1.6%	.	-0.3%
O=C(NC(=S)NCc1cccnc1)c1ccccc1[N+](=O)[O-]	-0.6	2	14%	25	1.3%	0.1	6.1%
Cc1ccccc1NC(=S)NC(C)CCc1ccccc1 (stereo not given)	0.1	1	21%	4	-1.2%	3.9	0.0%
CC(C)C1=CC2=CCC3[C@@](C)(CCC[C@@]3(C)C(=O)O)C2CC1 (stereo not given in full)	.	.	-14%	.	.	0.9	-1.0%
Cc1cnccc1CN(C)C(=O)C1CCC(=O)N(Cc2ccccc2F)C1 (stereo not given)	5.2	8	9%	-2	-0.3%	.	-0.8%
CCN(CC)S(=O)(=O)c1ccc(-c2nnc(SCC(=O)N3CCc4ccccc43)o2)cc1	-0.2	3	17%	0	0.8%	-1.4	18%[38.3 µM]
Cc1ccsc1C(=O)N1CCC1(C)C(=O)NS(=O)(=O)c1ccc(C#N)cc1 (stereo not given)	-0.3	.	.	.	-1.5%	.	0.8%
Cc1c(CC(=O)O)c(=O)oc2cc(OCc3ccc(F)cc3F)ccc12	-1.2	4	21%	0	.	0.9	-0.2%
COC(=O)c1ccc(CNC(=O)CSc2nnc(COc3ccccc3)n2C)o1	-0.7	24	9%	5	-0.8%	-0.5	-1.0%
